Source: PubChem (National Center for Advancing Translational Sciences (NCATS))
TRPML1 agonist: qHTS for Agonists of the Human Mucolipin Transient Receptor Potential 1 (TRPML1) | TRPML1-expressing cells, Ca2+ dye fluorescence, FDSS; host cell line not named in the record; reference of the full effect not given here | Mucolipin-1 (Homo sapiens), Q9GZU1 | AID 624414, 2012 | actives 0.12% (n = 410,000) | activation, % (test concentration not listed); in the data active = activation above about 50%; inconclusive = about 30% to 50%; inactive = below about 30%; also: 0% is about no effect; the text of the record puts the active cut at 80%
Target sequence (Q9GZU1 whole entry, looked up): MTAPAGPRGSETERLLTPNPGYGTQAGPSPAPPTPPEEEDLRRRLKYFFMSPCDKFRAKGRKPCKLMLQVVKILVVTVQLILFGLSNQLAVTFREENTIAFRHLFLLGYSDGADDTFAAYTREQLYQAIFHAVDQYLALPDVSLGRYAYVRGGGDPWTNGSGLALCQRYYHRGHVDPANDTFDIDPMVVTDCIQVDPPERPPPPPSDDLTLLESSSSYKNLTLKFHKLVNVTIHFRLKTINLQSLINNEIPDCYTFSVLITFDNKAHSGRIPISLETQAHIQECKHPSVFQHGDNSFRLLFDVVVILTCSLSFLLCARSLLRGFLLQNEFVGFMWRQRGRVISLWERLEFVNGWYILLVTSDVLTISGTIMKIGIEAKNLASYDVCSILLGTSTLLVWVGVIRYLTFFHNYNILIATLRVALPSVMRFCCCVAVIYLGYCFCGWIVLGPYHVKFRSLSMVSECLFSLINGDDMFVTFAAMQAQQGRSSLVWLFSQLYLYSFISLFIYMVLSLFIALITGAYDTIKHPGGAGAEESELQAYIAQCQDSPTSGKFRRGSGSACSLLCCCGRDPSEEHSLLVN
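TRPML1-DL cells, Tet-induced overnight (~16 h, 37 degrees C), loaded 45-90 min at room temperature with Ca8 no-wash calcium dye plus quencher. FDSS fluorescence: 10 s baseline, compound pin-transfer, 110 s agonist read, then EC80 54-4 (4uM final) and 110 s antagonist read.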
CtBP-E1A blk: qHTS Assay for Inhibitors of the CtBP/E1A Interaction; AlphaScreen GST-E1A/His-CtBP binding, 1536-well; hits give low values; control for the full effect not named in the record; activity change, % (no concentration beside the values); actives 0.49% (n = 340,000); in the data active means activity change below about -65%; inconclusive means about -30% to -65%; inactive means above about -30%; also: % is scaled to controls: 0 for no effect and ±100 for the full control effect; compound concentration not given in the record
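In 5 uL wells, 23 nL compound meets equimolar GST-E1A and His-CtBP (5X stock 125 nM each) for 2 h, 37 °C. Beads (5X, 50 ug/mL) then 1 h, 37 °C, dark.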
TRPV1 PAM: HTS Assay for Compounds that Act as Potentiators of the Vanilloid Receptor 1 | Transient receptor potential cation channel subfamily V member 1 (Homo sapiens), Q8NER1 | TRPV1-expressing cells, Fluo-8 calcium influx, capsaicin EC20 potentiation; host cell line not named in the record; control for the full effect not named in the record | potentiation, % at 8.33 µM | actives 0.02% (n = 320,000); active means potentiation above 80%; inconclusive means 30% to 80%; inactive means below 30%; also: 0% is about no effect
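Cells expressing TRPV1 were dye-loaded with Fluo-8 and read kinetically: 10 s baseline, 3 min after compound (agonist portion), then 2 min after EC20 capsaicin (allosteric enhancer portion). Calcium-bound dye fluorescence at 480/520 nm.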
Six1-Eya2 blk: qHTS Assay for Inhibitors of the Six1/Eya2 Interaction; AlphaScreen GST-Six1/His-Eya2 binding, biochemical; hits give low values; control for the full effect not named in the record; activity change, % (test concentration not listed); actives 0.56% (n = 360,000); AID 651725, 2012; in the data active = activity change below about -65%; inconclusive = about -30% to -65%; inactive = above about -30%; also: % is scaled to controls: 0 for no effect and ±100 for the full control effect; compound concentration not given in the record
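GST-Six1 + His-Eya2 (5X stock: 250/500 nM); Tris pH 8.0, 300 mM NaCl, 0.05% BSA, 0.02% Tween 20; GSH donor/Ni acceptor beads; 1 h 37 °C dark; AlphaScreen readout.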
TRPML1 inh: qHTS for Inhibitors of the Human Mucolipin Transient Receptor Potential 1 (TRPML1) | Mucolipin-1 (Homo sapiens), Q9GZU1 | TRPML1-inducible cells, Ca2+ dye fluorescence, FDSS; hits give low values; inhibition of EC80 agonist-evoked calcium signal | actives 0.02% (n = 390,000) | activity change, negative = inhibition, % (concentration not given with the values); in the data active means activity change below about -50%; inconclusive means about -30% to -50%; inactive means above about -30%;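 also: stimulus is agonist 54-4 at its EC80 concentration; % is scaled to controls: 0 for no effect and ±100 for the full control effect; compound concentration not given in the record; the text of the record puts the active cut at -80%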
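Calcium fluorescence in TRPML1-DL cells induced overnight with Tet: a 110 s read after compound pin addition, then a 110 s antagonist read after challenge with 54-4 at 4 uM final (EC80).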
D2 PAM: Beta-Arrestin HTS for Positive Allosteric Modulators of the Human D2 Dopamine Receptor: Potentiators. D(2) dopamine receptor (Homo sapiens), P14416. DiscoveRx D2 beta-arrestin cells, luminescence, 90 min; 100% = 57 uM dopamine signal. potentiation, % (test concentration not listed). actives 0.23% (n = 360,000). AID 624464, 2012; active = potentiation of 50% or more; inconclusive = 30% to 50%; inactive = 30% or less;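 also: compound concentration not given in the record; tested on top of an EC20 dose of dopamine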
Target sequence (P14416 whole entry, looked up): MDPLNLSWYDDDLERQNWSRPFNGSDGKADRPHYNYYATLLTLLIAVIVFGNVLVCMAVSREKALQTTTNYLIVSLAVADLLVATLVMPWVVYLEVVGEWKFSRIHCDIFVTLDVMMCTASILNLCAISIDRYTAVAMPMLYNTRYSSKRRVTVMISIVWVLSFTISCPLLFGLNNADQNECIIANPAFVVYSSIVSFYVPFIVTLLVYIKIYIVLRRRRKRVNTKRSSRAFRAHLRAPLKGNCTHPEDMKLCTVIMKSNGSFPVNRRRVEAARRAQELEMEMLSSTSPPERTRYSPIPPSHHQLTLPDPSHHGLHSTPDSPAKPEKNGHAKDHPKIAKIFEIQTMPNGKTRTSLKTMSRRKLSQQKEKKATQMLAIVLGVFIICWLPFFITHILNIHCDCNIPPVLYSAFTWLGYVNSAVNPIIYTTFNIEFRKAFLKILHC
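D2 cells co-treated with compound plus 50 nM dopamine (EC20) for 90 min at 37 deg C to detect potentiation. Beta-arrestin recruitment was read as enzyme-fragment luminescence after 1 h at ambient temperature. Full response was set by 57 uM dopamine.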
The depositor's hits bear a star; u = inconclusive; x = no result given; & = joins results of further samples.

SMILES	TRPML1 agonist	CtBP-E1A blk	TRPV1 PAM	Six1-Eya2 blk	TRPML1 inh	D2 PAM
COC(=O)CC1C(=O)NCCN1C(=S)Nc1cc(C)cc(C)c1 (stereo unspecified)	1.1	3	-4	-2	14	7
C=CCn1c(SCC(C)=O)nc2sc3c(c2c1=O)CCC3	4.0	x	-17	-18	-20	13
COCCNC(=O)C1(C)CCN(C(=O)C2(c3ccc(Cl)cc3)CCCC2)C1 (stereo unspecified)	0.4	5	x	-1	9	-6
Cc1cc(C)c2[nH]c(=S)cc(C)c2c1	0.9	-16	-1	-13	20	1
O=C(CCN1C(=O)c2ccccc2C1=O)N1CCN(Cc2ccc(Cl)cc2Cl)CC1	-0.5	-7	-14	-4	-13	-12
COc1cc(NC(=O)c2cccc(NC3=NC4CS(=O)(=O)CC4S3)c2)cc(OC)c1OC (stereo unspecified)	0.7	0	-10	0	-8	-10
CCOC(=O)C1(Cc2ccc(OC)cc2)CCN(C(=O)Cn2cnnn2)CC1	-0.3	1	3	8	26	2
O=S(=O)(c1ccccc1)N1CCN(C(=S)Nc2ccc(F)cc2)CC1	0.1	5	20	2	u	22
CC(C)(C)n1nnnc1C(c1cc2ccccc2o1)N1CCCC1 (stereo unspecified)	-0.9	-4	x	-14	x	x
OC(c1ccccc1)(c1ccccc1)C1CCN(CCCOc2ccc3c(c2)CCCC3)CC1	0.7	-7	x	-20	x	x
O=C(N/N=C/c1cc(Br)cs1)c1c[nH]c2ccccc12	1.0	x	x	-1	13	-14
CC1CCCN(C(=O)CN(C)S(=O)(=O)c2ccc3c(c2)c(=O)n(C)c(=O)n3C)C1 (stereo unspecified)	0.2	u	0	-7	-7	-6
COc1ccc(NC(=O)Cn2nnc(-c3ccccc3NC(=O)c3ccco3)n2)cc1	-0.3	15	1	1	4	-6
Cc1ccccc1OCC(=O)OCC(=O)c1ccc[nH]1	-0.5	x	-6	1	-13	6
COc1ccc(C(=O)CSc2nnc(CN3CCCCC3)n2-c2ccc(F)cc2)cc1	11	-7	-11	-1	19	-8

2 of the compounds above, in CSV form.
molecule,TRPML1 agonist,CtBP-E1A blk,TRPV1 PAM,Six1-Eya2 blk,TRPML1 inh,D2 PAM
COCCNC(=O)C1(C)CCN(C(=O)C2(c3ccc(Cl)cc3)CCCC2)C1 (stereo unspecified),0.4,5,x,-1,9,-6
Cc1cc(C)c2[nH]c(=S)cc(C)c2c1,0.9,-16,-1,-13,20,1

Additional entries follow:
SMILES	TRPML1 agonist	CtBP-E1A blk	TRPV1 PAM	Six1-Eya2 blk	TRPML1 inh	D2 PAM
CCn1c(SCC(=O)NC2CCCC2)nnc1-c1ccccn1	-0.4	3	0	-1	24	-7
CCCc1cc(C(=O)NCc2ccccc2)no1	0.1	3	-52	2	-12	-4
COc1ccc(C(=O)Nc2nnc(-c3cccs3)s2)cc1	1.0	0	11	5	-2	-12
N#Cc1c(N)nc2c3c(sc(=N)c2c1N)NC(=O)CC3c1c(F)cccc1Cl (stereo unspecified)	0.1	u	-3	u	4	-6
O=C(NCC1CCCN(Cc2cccc(OCCO)c2)C1)c1ccc(F)cc1 (stereo unspecified)	1.5	x	2	7	14	-7
COc1ccc(-n2c(=O)n(Cc3ccccc3)c(=O)c3[nH]cnc32)cc1	3.4	-8	-7	-12	4	-22
Cc1cc(=O)[nH]c2ccccc12	-0.1&0.3	0	-3	4	-9	-9
COc1ccc(NC(=O)c2ccc3c(c2)C(=O)N(CC2CCCO2)C3=O)c(OC)c1 (stereo unspecified)	0.9	-6	9	8	-4	0
CN1CCN(NC(=O)NC2CCCCC2)CC1	-0.2	3	10	-14	1	-8
CCN1C(=O)C(CC(=O)Nc2c(C)cccc2C)SC1=Nc1ccc(S(N)(=O)=O)cc1 (stereo unspecified)	-0.2	11	-37	0	-9	-12
COc1cc2cnc(-c3ccsc3)cc2cc1OC	-1.4	-1	x	-18	3	-27
COc1ccc(S(=O)(=O)N(C)CC(=O)NCc2ccccc2)cc1OC	0.2	-18	-4	4	-3	-3
Cc1ccc(-c2csc(=S)[nH]2)cc1	5.5	-5	-4	-3	33	-9
COc1ccc(S(=O)(=O)Nc2cc3c4c(c2)CC(=O)N4CCC3)cc1	-0.6	-1	-10	2	-12	2
O=c1c(F)cn(C2CCCO2)c(=O)n1Cc1ccc(Cl)cc1 (stereo unspecified)	5.1	7	2	1	7	1
COc1ccc(NC(=S)NCCN2CCC(C)CC2)cc1Cl	0.0	-8	-8	13	7	-39
CC1CCCCC1NC(=O)COC(=O)/C=C/c1ccc2c(c1)OCO2 (stereo unspecified)	-0.4	-19	11	1	0	-4
CCc1cc(C(=O)N2CCCC(C(=O)c3ccc(OC)c(F)c3)C2)n(C)n1 (stereo unspecified)	-0.6	0	u	5	-16	-1
Cc1n[nH]c(=O)c2c1nnn2Cc1ccccc1Cl	-1.0	-2	-37	3	14	-8
CC(=O)c1c(C)[nH]c(C(=O)COC(=O)c2ccc(Cl)nc2)c1C	0.0	x	-9	-1	-2	5
O=C(NCCc1ccccc1)c1ccc2nc(-c3ccco3)c(-c3ccco3)nc2c1	1.4	-14	15	-14	10	8
CC(C)(C)c1ccc(C(=O)NCc2cccnc2)cc1	1.9	-1	-17	5	12	-14
COC(=O)/C(=C\c1ccc([N+](=O)[O-])o1)NC(=O)c1ccccc1	1.7	-2	8	-3	1	-2
COc1ccc(CNc2cc(C)ccn2)cc1	-0.5	-20	26	-6	-13	-1
COc1ccc(S(=O)(=O)N2CCOCC2)cc1NC(=O)CCCOc1ccc(C(C)=O)cc1	-0.5	-1	x	-6	11	-8
Cn1c(SCC(=O)Nc2nc3c(s2)CCCC3)nnc1-c1ccccc1	0.6	4	17	-1	-1	-4
CC(C)(C)c1nnc(N/N=C/c2ccc(Br)cc2)n(N)c1=O	2.7	-3	12	-7	2	9
COc1ccc(CCNC(=O)Cn2cnc3sc(C)c(-c4ccc(F)cc4)c3c2=O)cc1OC	9.6	-17	-2	6	-1	-2
C/C(=N\NC(=O)c1c(Cl)c(C)nn1C)c1ccc(NC(=O)COc2ccc(Cl)cc2C)cc1	-0.4	0	20	-3	-2	0
COc1ccc(N2CCN(CC(O)COc3ccc(C)cc3C)CC2)cc1 (stereo unspecified)	1.3&0.1	-21	-13	-23	-29&-21	-19
COc1ccccc1N1CCN(/N=C/C=C/c2ccccc2[N+](=O)[O-])CC1	1.9	-65*	4	u	30	-1
COc1ccc(NC(=O)C2CCCN2S(=O)(=O)c2cccc3nsnc23)c(OC)c1 (stereo unspecified)	-0.8	0	-7	-1	-13	-4
CC(C)N(CCC(=O)c1ccc2ccccc2c1)Cc1ccccc1	14&11	-13	-12	8	-5	-24
CC(C)N(C)Cc1nnnn1CC(=O)NCc1cc(F)cc(C(F)(F)F)c1	1.0	5	-2	-6	-5	-3
COc1ccc(N2CCN(C(=O)c3ccc(-c4ccccc4)cc3)CC2)cc1	x	1	-6	9	x	-4
Cc1cc(C)c(NC(=O)CSc2ccc3nnc(CCNC(=O)c4ccccc4)n3n2)c(C)c1	1.4	-3	-3	0	-21	-26
O=C(C1CC(=O)N(c2ccc(F)cc2)C1)N1CCOCC1 (stereo unspecified)	0.8	3	-12	-1	-16	-5
COCCN(CCOC)C(=O)c1ccc(NS(=O)(=O)c2ccc3[nH]c(=O)[nH]c3c2)cc1	0.2	-3	6	0	10	0
CCCCn1c(N)c(N(CCOC)C(=O)C2CCN(C(=O)c3ccccc3C)CC2)c(=O)[nH]c1=O	-0.2	2	-1	3	-9	-10
CCCCn1c(N)c(N(CC(C)C)C(=O)C2CCN(S(=O)(=O)c3ccc(Cl)cc3)CC2)c(=O)[nH]c1=O	-0.5	2	24	6	-6	-17
COc1ccc(OC)c(-c2cc(C(=O)NCc3ccco3)no2)c1	1.5	-16	-10	-14	-5	-20
CCOc1ccc(NC(=O)C2CCCN(S(C)(=O)=O)C2)cc1 (stereo unspecified)	0.4	0	-5	-4	-2	-1
CN(C(=O)CS(=O)(=O)Cc1ccccc1Cl)c1ccccc1	0.0	-23	-3	6	-4	4
Cc1nc(NC(=O)COC(=O)c2ccc(CO)cc2)c(Cl)cc1Cl	0.9	-2	x	3	14	-1
CCN(Cc1ccccc1)C(=S)NC(=O)c1ccccc1Br	-0.2	-3	-20	-10	-10	-18
COc1ccc(NC(=O)CNC(=O)N2CC(=O)Nc3ccccc32)cc1OC	3.4	x	0	-12	3	-6

Of the compounds above, 11 contain a Cl atom:
SMILES	TRPML1 agonist	CtBP-E1A blk	TRPV1 PAM	Six1-Eya2 blk	TRPML1 inh	D2 PAM
COCCNC(=O)C1(C)CCN(C(=O)C2(c3ccc(Cl)cc3)CCCC2)C1 (stereo unspecified)	0.4	5	x	-1	9	-6
O=C(CCN1C(=O)c2ccccc2C1=O)N1CCN(Cc2ccc(Cl)cc2Cl)CC1	-0.5	-7	-14	-4	-13	-12
N#Cc1c(N)nc2c3c(sc(=N)c2c1N)NC(=O)CC3c1c(F)cccc1Cl (stereo unspecified)	0.1	u	-3	u	4	-6
O=c1c(F)cn(C2CCCO2)c(=O)n1Cc1ccc(Cl)cc1 (stereo unspecified)	5.1	7	2	1	7	1
COc1ccc(NC(=S)NCCN2CCC(C)CC2)cc1Cl	0.0	-8	-8	13	7	-39
Cc1n[nH]c(=O)c2c1nnn2Cc1ccccc1Cl	-1.0	-2	-37	3	14	-8
CC(=O)c1c(C)[nH]c(C(=O)COC(=O)c2ccc(Cl)nc2)c1C	0.0	x	-9	-1	-2	5
C/C(=N\NC(=O)c1c(Cl)c(C)nn1C)c1ccc(NC(=O)COc2ccc(Cl)cc2C)cc1	-0.4	0	20	-3	-2	0
CCCCn1c(N)c(N(CC(C)C)C(=O)C2CCN(S(=O)(=O)c3ccc(Cl)cc3)CC2)c(=O)[nH]c1=O	-0.5	2	24	6	-6	-17
CN(C(=O)CS(=O)(=O)Cc1ccccc1Cl)c1ccccc1	0.0	-23	-3	6	-4	4
Cc1nc(NC(=O)COC(=O)c2ccc(CO)cc2)c(Cl)cc1Cl	0.9	-2	x	3	14	-1

This is a random part of the collection. About 0.95% of those tested had a hit in this group.
